RanGTP-Impb inh = disruptors of Ran-importin-beta complex formation – biochemical, FRET, CFP-Ran, YFP-importin-beta, homogeneous, primary screen. cell-free CFP-Ran/YFP-importin-beta FRET ratio. inhibition, % (test concentration not listed). hit rate 1.1% among 300,000. AID 2216;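 active = most replicates above 15%; inconclusive = exactly half above 15%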;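 note: 0% = DMSO wells and 100% = Ran loaded with GDP instead of GTP; wells of about 40 µL received 100 nL stock; the first replicate is given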
Vif A3G = HIV-1 Vif–A3G interaction blockers – biochemical, TR-FRET, GST-Vif 1-94, biotin-A3G peptide, dose response retest, primary screen (AID 1117319). TR-FRET GST-Vif / biotin-A3G peptide binding; higher % means a stronger effect; test concentration not given here; strong numbers were not always called active. inhibition, %, or IC50 in µM where a hit was titrated. hit rate 0.57% among 260,000;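 active = above the screen mean plus three standard deviations and confirmed in dose response; inconclusive = results disagree or hit not tested in dose response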;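 note: Vif residues 1-94 fused to GST binding biotinylated APOBEC3G peptide 110-148; 0% = full assay without inhibitor and 100% = GST in place of GST-Vif; retest series ran down from 100 µM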
T cruzi repl = T. cruzi replication inhibition; T. cruzi beta-gal in NIH3T3, luminescence, 90 h; inhibition, % (no concentration beside the values); hit rate 1.4% among 300,000; AID 1885;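 active = mean inhibition across valid replicates above about 55%, limit read from the data; inconclusive = mean below that limit but half or more replicates reach it; inactive = mean below it, under half of replicates reach it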;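 note: signal also drops with host cell toxicity which is not excluded here; 0% = plate median of DMSO wells and 100% = zero luminescence signal; higher percent means less beta-gal luminescence so fewer parasites; stock transfer was 50 nL into about 50 µL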
MLL AF4-AF9 inh = MLL-AF4/AF9 protein interaction inhibition; P42568; AlphaScreen, biotin-AF4 peptide binding to FLAG-AF9; inhibition, % at 10 µM; hit rate 0.47% among 350,000;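 active = every replicate reaching a set inhibition limit, whatever the replicate mean, cut at about 25% in these data; inconclusive = mean inhibition reaches that limit but some replicates miss it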;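 note: 0% = plate neutral control median and 100% = total signal loss; the record names both 10 and 1 µM as test concentration; the first replicate is given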
LANA-H2B inh = blocks KSHV LANA binding to histone H2A/H2B; Q9QR71; cell-free LANA-H2A/H2B peptide, fluorescence polarization; inhibition, % (concentration not given with the values); hit rate 0.6% among 320,000; AID 2629; in the data active = inhibition mostly above about 10%, no sharp cut-off; inactive = mostly below about 6.7%;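 note: stock transfer was 7.5 nL into about 10 µL; 0% = median of vehicle wells and 100% = median of positive control wells; one replicate is shown; the record names a cut of 25% in any replicate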
Target sequence (Q9QR71 whole entry, looked up): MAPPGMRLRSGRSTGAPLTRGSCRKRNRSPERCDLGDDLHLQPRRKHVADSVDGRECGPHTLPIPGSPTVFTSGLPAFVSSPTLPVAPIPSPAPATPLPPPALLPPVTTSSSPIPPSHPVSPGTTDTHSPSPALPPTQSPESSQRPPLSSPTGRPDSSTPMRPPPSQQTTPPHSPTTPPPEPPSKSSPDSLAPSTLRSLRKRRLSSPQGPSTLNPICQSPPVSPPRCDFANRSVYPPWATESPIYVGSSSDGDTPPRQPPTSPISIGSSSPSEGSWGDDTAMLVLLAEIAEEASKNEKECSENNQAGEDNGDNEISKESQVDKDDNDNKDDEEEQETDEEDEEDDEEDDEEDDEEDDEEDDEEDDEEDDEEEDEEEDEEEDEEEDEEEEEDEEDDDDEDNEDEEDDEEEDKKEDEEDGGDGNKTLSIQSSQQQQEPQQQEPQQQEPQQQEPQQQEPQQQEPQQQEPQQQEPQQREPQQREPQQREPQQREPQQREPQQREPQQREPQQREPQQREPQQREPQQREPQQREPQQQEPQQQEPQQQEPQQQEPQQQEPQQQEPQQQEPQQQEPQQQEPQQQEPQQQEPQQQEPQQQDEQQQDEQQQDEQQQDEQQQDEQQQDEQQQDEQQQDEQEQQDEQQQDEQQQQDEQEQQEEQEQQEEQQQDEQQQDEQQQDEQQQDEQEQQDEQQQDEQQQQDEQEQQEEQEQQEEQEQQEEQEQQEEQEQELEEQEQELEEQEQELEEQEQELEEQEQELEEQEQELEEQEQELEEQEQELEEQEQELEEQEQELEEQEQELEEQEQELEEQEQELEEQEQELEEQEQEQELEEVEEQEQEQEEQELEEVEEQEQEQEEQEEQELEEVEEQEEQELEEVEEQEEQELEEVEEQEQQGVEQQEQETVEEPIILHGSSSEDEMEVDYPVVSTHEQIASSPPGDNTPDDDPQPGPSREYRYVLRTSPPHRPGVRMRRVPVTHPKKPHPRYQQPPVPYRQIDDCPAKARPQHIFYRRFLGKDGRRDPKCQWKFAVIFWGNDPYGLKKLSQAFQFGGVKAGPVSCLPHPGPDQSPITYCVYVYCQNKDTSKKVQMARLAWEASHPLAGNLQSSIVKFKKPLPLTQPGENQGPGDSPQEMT
Beta cell apopt = beta cell apoptosis inhibition; INS-1E cytokine-induced death, ATP luminescence, 48 h; percent of positive-control rescue, neutral wells zero; hit rate 0.8% among 300,000; protection from apoptosis, % (no concentration beside the values);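 active = all replicates at 75% or more, or half of them and the mean; inconclusive = half reach 75% but not the mean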;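 note: 0% = cytokine-treated negative control wells and 100% = positive control rescue; higher means more ATP so stronger rescue from cytokine killing; wells of about 40 µL received 100 nL stock; the first replicate is given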
Calb FLC = C. albicans growth modulation with fluconazole; C. albicans CaCi-2 (fluconazole-resistant clinical isolate) + fluconazole, Alamar Blue growth, 48 h; AID 1979; hit rate 0.57% among 300,000; growth inhibition, % (test concentration not listed);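 active = most replicates above 75%; inconclusive = exactly half above 75%; inactive = most below 75%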;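 note: all wells also contain fluconazole at 8 µg/ml as a sub-toxic cotreatment; 0% = median of DMSO wells and 100% = median of geldanamycin control wells; wells of about 8 µL received 7.5 nL stock; the first replicate is given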
A1 inh = inhibitors of the anti-apoptotic protein A1, read as caspase activation | MEF A1-2A-BIM cells, Caspase-Glo 3/7 luminescence, 3 h; percent of clofoctol response, vehicle zero | caspase activation, % (no concentration beside the values) | hit rate 0.066% among 330,000 | AID 2462;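 active = over half of replicate activation scores above 10%, or exactly half above 10 with the replicate mean above 10; inconclusive = replicate mean below 10 yet half the replicates above 10; inactive = over half of replicates below 10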;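 note: wells of about 30 µL received 50 nL stock; many hits fall short of the cut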
An asterisk follows results filed as active; ? = inconclusive; nt = no result given.

SMILES	RanGTP-Impb inh	Vif A3G	T cruzi repl	MLL AF4-AF9 inh	LANA-H2B inh	Beta cell apopt	Calb FLC	A1 inh
Cn1c(=O)n(Cc2ccccc2Br)c2ccccc21	1.7	-9%	12	-1.5	1.1	-4	-12	0.3
C=Cn1cc[n+](CC(=O)c2ccc(Cl)c(Cl)c2)c1	-0.9	nt	1	2.4	4.2	-5	4	0.4
CCOCCCn1c(SCC(=O)Nc2cc(C(C)(C)C)nn2-c2ccccc2)nc2ccccc2c1=O	-4.9	-13%	21	nt	5.6	5	23	-0.7
CCc1ccc(N2CCN(CCNC(=O)Nc3ccccc3)CC2)cc1	-1.6	nt	10	-0.3	1.0	3	-10	0.2
Clc1cc(NCc2ccccc2)ncn1	8.7	nt	5	-22	3.7	1	-3	0.0
COC(=O)c1ccc(C2CC(=O)Nc3cc(OC)c(OC)c(OC)c32)cc1 (stereo not given)	1.3	-4%	-6	nt	-1.5	5	-5	1.6
CCOc1cc(/C=C/C(=O)c2ccc(OC)c(CN3CCOCC3)c2)cc(Br)c1O	-8.4	nt	11	10	-9.6	-2	4	-0.4
CCOC(=O)N1CCN(C(=O)CSc2cc(C)nc3c(-c4ccccc4OC)c(C)nn23)CC1	1.7	-1%	-4	nt	7.0	nt	4	-0.1
CCc1nnc(NC(=O)C=C(C)C)s1	0.2	-2%	-3	nt	-1.8	6	39	-0.5
CN(C)CC(C)(C)CNC(=O)c1cc(Br)cc(Br)c1O	nt	nt	-10	-0.4	3.5	1	8	-0.2
O=CC1=C(N2CCOCC2)/C(=C/c2ccc(Cl)cc2)CC1	0.4	?	3	8.4	-4.7	2	-2	1.3
O=C(NCc1ccc(F)cc1)c1cccc(S(=O)(=O)N2CCCC2)c1	0.0	12%	6	nt	-4.7	nt	-4	-0.3
COc1cc(/C=N/NC(=O)c2ccc(N)cc2)ccc1OC(=O)c1cccc(C)c1	-0.2	nt	-3	1.1	2.6	-3	44	1.1
CN(C)S(=O)(=O)c1ccc(C(=O)Nc2cccc(C(=O)N3CCOCC3)c2)cc1	-3.8	nt	-6	-2.6	-0.8	-3	-2	0.7
CCC(=O)NC(=S)Nc1ccc(NC(=O)CC)cc1	2.6	0%	-3	nt	-4.9	-12	-3	0.6

Compound profiles, as listed above. Values in the order: RanGTP-Impb inh, Vif A3G, T cruzi repl, MLL AF4-AF9 inh, LANA-H2B inh, Beta cell apopt, Calb FLC, A1 inh
O=C(NCc1ccc(F)cc1)c1cccc(S(=O)(=O)N2CCCC2)c1 is listed as 0.0, 12%, 6, nt, -4.7, nt, -4, -0.3
CN(C)S(=O)(=O)c1ccc(C(=O)Nc2cccc(C(=O)N3CCOCC3)c2)cc1 is listed as -3.8, nt, -6, -2.6, -0.8, -3, -2, 0.7
CCC(=O)NC(=S)Nc1ccc(NC(=O)CC)cc1 is listed as 2.6, 0%, -3, nt, -4.9, -12, -3, 0.6

More structures
SMILES	RanGTP-Impb inh	Vif A3G	T cruzi repl	MLL AF4-AF9 inh	LANA-H2B inh	Beta cell apopt	Calb FLC	A1 inh
Cc1ccc(CN2CCN(/N=C/c3cc(Br)cc(Br)c3O)CC2)c(C)c1	-7.8	nt	9	1.2	-5.2	-2	1	-0.7
CCCS(=O)(=O)N1CCN(CCN2C(=O)c3cccc4cccc(c34)C2=O)CC1	?	nt	15	1.2	-8.2	6	5	0.3
O=C(CSc1ncn[nH]1)N1c2ccccc2Sc2ccccc21	1.1	6%	31	1.9	-3.8	-5	-3	0.0
Cc1ccc(OC(=O)c2ccccc2C(=O)OCC(F)(F)C(F)F)cc1	-1.3	0%	?	nt	1.2	-5	-10	-0.6
O=C(/C=C/c1ccco1)OCc1nnc(-c2ccccc2)o1	-2.1	8%	-1	-4.1	-4.9	1	1	-0.2
COc1ccc(S(=O)(=O)N2CCN(c3ccccc3)CC2)cc1	-2.5	8%	-3	0.3	-1.3	-4	0	-0.4
O=C(Nc1ccccc1Cl)NC1(C(=O)N2CCCC2)CCCCC1	2.9	-9%	-15	nt	1.9	-2	-3	-0.5
Cn1c(=O)cc(SCC(=O)NCCC2=CCCCC2)c2ccccc21	2.0	13%	10	5.0	-3.8	-2	-6	0.1
O=C(Nc1ccc(S(=O)(=O)N2CCCC2)cc1)C1CCCCC1	2.9	nt	-6	-1.6	4.6	-1	-3	1.2
Cn1c(N2CCCCC2)nc2c1c(=O)n(Cc1cccc(Br)c1)c(=O)n2C	-0.9	0%	13	nt	nt	nt	9	nt
COc1ccc(C(=O)N2CCCC2)cc1	2.7	0%	-3	nt	2.0	5	-7	0.1
CCCS(=O)(=O)c1c(S(=O)(=O)CCC)c2c(N)cccn2c1C(=O)c1ccc(Br)cc1	-11	16%	29	nt	3.0	-4	31	0.2
O=C(CNS(=O)(=O)c1cccs1)NCc1ccccc1	4.2	-10%	7	-18	2.6	nt	12	0.4
O=C(CCNS(=O)(=O)c1ccccc1)OCc1nnc(-c2ccccc2)o1	-2.7	-5%	2	-9.2	-5.8	2	3	0.3
N=C1C(c2ccccc2)=C(O)CN1c1ccccc1N1CCOCC1	0.9	-3%	-13	nt	-1.6	-1	-2	-0.8
CSC1=N/C(=C\c2c(F)cccc2Cl)C(=O)S1	-2.1	4%	-8	nt	-1.9	nt	11	0.1
Cc1cccc(SC2CCN(C(=O)C3CCC(=O)N(C4CC4)C3)CC2)c1 (stereo not given)	2.9	nt	-12	-2.4	8.6	2	-7	-0.7
COc1cc(C(=O)Nc2ccc3oc(-c4cccnc4)nc3c2)cc(OC)c1OC	?	-63%	-17	-0.7	0.9	11	19	0.7
COc1cccc(CN2CCN(Cc3cccc4c3OCO4)CC2CCO)c1 (stereo not given)	0.6	-2%	33	1.5	-0.3	6	2	0.0
O=C(CN1CCOCC1)N/N=C/c1ccc(-c2cccc(Cl)c2Cl)o1	-1.2	nt	19	2.8	5.1	-22	1	0.9
COc1ccc(-c2c(-c3ccc(O)cc3O)n[nH]c2C(F)(F)F)cc1	4.5	7%	-3	-0.7	-6.3	-3	14	-0.9
COc1ccc(S(=O)(=O)Nc2nc3n(n2)C(c2ccc(Cl)cc2)CC(=O)N3)cc1 (stereo not given)	nt	7%	nt	nt	-0.6	-1	nt	0.6
Cc1ccc(CNC(=O)CN2C(=O)c3ccccc3S2(=O)=O)cc1	-2.1	nt	-2	-1.3	6.5	-1	-5	0.2
COc1ccc(CN2CCN(C(=O)c3ccc(F)cc3)CC2)c(OC)c1	4.0	nt	-4	1.5	-4.4	-6	-15	1.5
CC(C)[C@H](NC(=O)C1CCN(S(=O)(=O)c2ccccc2)CC1)C(=O)NCc1ccccc1	1.9	nt	1	-1.6	-2.0	0	-5	-0.5
CCCCn1cnc2c(=S)nc(N)[nH]c21	-6.4	17%	-7	-6.6	-0.5	1	6	0.9
c1cnc2ccc3ncccc3c2c1	2.2	24%	8	-18	-0.7	6	-2	-0.8
O=C(COC(=O)C1CC(=O)N(Cc2ccccc2)C1)c1ccc(F)cc1 (stereo not given)	-3.6	-3%	-7	-1.6	-2.8	0	6	-1.4
CC(=O)Nc1cccc(Oc2cc(C#N)c(C#N)cc2N2CCCCCC2)c1	-1.6	9%	36	nt	-0.4	1	2	0.1
O=S(=O)(N1CCCCC1)N1CCCN(S(=O)(=O)N2CCCCC2)CC1	-0.9	10%	9	nt	-0.4	-3	?	0.2
CC1CN(S(=O)(=O)c2cccc(C(=O)Nc3ccc(S(=O)(=O)Nc4ncccn4)cc3)c2)CC(C)O1 (stereo not given)	1.6	-4%	-11	?	nt	nt	-1	nt
COc1cccc(C(=O)Cn2c(=O)n(CC3CCCO3)c(=O)c3ccccc32)c1 (stereo not given)	5.2	13%	-13	nt	0.4	-4	-2	1.9
COc1ccc(-c2cc(C(F)(F)F)n3ncc(C(=O)Nc4c(C)n(C)n(-c5ccccc5)c4=O)c3n2)cc1	3.8	-11%	-6	nt	-2.2	7	-9	-0.1
CCOc1ccccc1C(=O)NCC(=O)OCC(=O)N1CCCC1	nt	-4%	nt	2.0	-1.2	6	nt	0.3
Cc1cccc(C)c1NC(=O)c1nc(S(=O)(=O)Cc2ccccc2)ncc1Cl	-3.7	nt	-17	-1.9	nt	nt	-5	nt
NNC(=O)C1SCCN1S(=O)(=O)c1ccc(Cl)cc1 (stereo not given)	-1.3	nt	1	-3.4	-2.0	-5	1	-0.4
Cc1cc(F)ccc1NC(=O)Nc1ccc2c(c1)OCO2	6.9	nt	-9	1.1	4.5	-1	23	-7.1
Cc1cc(NC(=O)CCC(=O)N(CC(=O)NC2CCCC2)c2cccc(C)c2C)no1	-3.3	nt	-3	nt	0.3	-3	5	-0.7
CCc1cccc(OCC(=O)Nc2cc(Cl)ccc2-n2cncn2)c1	nt	4%	nt	-11	-10	3	nt	-1.0
COc1ccc(C(=O)/C=C/Nc2ccc(S(=O)(=O)Nc3nc(C)cc(C)n3)cc2)cc1OC	3.1	nt	-2	-2.7	6.2	2	5	-0.1
O=C(Nc1ccc(F)cc1)c1cccc2c1C(=O)N(Cc1ccccn1)C2	nt	4%	nt	nt	-2.4	2	nt	0.2
CC(NC(=O)c1ccc(Cl)cc1)C(=O)N1CCCCC1 (stereo not given)	0.1	-3%	-10	-8.2	4.9	-2	-2	0.1
Cn1nnc2cc(C(=O)Nc3ccccc3)ccc21	3.6	-16%	-9	-1.6	1.2	6	-2	-0.6
CCc1c(C)nc(N2CCN(c3ccc(Cl)cc3)CC2)[nH]c1=O	-0.9	nt	-4	1.1	-2.1	0	-1	-0.5
COc1cc(/C=N/n2nnnc2N)ccc1OC(C)=O	1.1	nt	2	-0.1	2.8	-2	9	1.8
CCOC(=O)c1c(C)n(-c2ccc(C)cc2)c2c(C(C(C)=O)C(=O)O)c(Br)c(O)c(O)c12 (stereo not given)	0.7	?	9	nt	1.6	0	28	-0.1
Cc1ccc2[nH]c(O)c(N=NC(=O)CCc3ccccc3)c2c1Br	-1.0	4%	23	nt	1.6	-17	13	0.1
Cc1cc(C(=O)Nc2c(C)nn(Cc3ccccc3Cl)c2C)no1	-2.6	0%	-25	nt	0.7	-6	21	1.1
CCCN1C2CCCC1CC(NC(=O)c1ccc(F)cc1)C2 (stereo not given)	9.0	31%	-1	nt	-5.9	2	1	-0.3
COCCNC(=O)CN(Cc1ccc(F)cc1)C(=O)CCC(=O)Nc1nccs1	-0.7	nt	1	-1.8	-7.5	0	-15	0.5
COc1ccc(Cl)cc1C(=O)Nc1nnn(C)n1	-2.4	5%	-22	nt	3.3	-1	6	0.6
CC(=O)N(CCCCl)C(C#N)c1ccccc1 (stereo not given)	3.0	12%	-9	-1.9	-0.2	6	?	-1.2
O=C(Nc1ccc(O)c(-c2nc3ccccc3s2)c1)c1cc(=O)c2ccccc2o1	-0.5	32%	-3	nt	-4.3	69	3	0.9
CC(=O)Nc1ccc(NS(C)(=O)=O)cc1	-0.6	5%	-7	nt	9.2	-1	12	0.3
O=C(O)c1ccccc1C(=O)NCCc1c(C(=O)O)[nH]c2ccc(Cl)cc12	3.3	12%	6	-26	2.0	-20	-11	-0.9

Source: PubChem BioAssay (several laboratories)
